Assay outcomes: PubChem BioAssay, National Center for Advancing Translational Sciences (NCATS)
TRPML1 ag – activates the human TRPML1 channel | TRPML1-expressing cells, Ca2+ dye fluorescence, FDSS; host cell line not named in the record; reference of the full effect not given here | activation, % (test concentration not listed) | Q9GZU1 | actives 0.12% (n = 410,000) | AID 624414; in the data active = activation above about 50%; inconclusive = about 30% to 50%; inactive = below about 30%; note: 0% is about no effect; the text of the record puts the active cut at 80%
Target sequence (Q9GZU1 whole entry, looked up): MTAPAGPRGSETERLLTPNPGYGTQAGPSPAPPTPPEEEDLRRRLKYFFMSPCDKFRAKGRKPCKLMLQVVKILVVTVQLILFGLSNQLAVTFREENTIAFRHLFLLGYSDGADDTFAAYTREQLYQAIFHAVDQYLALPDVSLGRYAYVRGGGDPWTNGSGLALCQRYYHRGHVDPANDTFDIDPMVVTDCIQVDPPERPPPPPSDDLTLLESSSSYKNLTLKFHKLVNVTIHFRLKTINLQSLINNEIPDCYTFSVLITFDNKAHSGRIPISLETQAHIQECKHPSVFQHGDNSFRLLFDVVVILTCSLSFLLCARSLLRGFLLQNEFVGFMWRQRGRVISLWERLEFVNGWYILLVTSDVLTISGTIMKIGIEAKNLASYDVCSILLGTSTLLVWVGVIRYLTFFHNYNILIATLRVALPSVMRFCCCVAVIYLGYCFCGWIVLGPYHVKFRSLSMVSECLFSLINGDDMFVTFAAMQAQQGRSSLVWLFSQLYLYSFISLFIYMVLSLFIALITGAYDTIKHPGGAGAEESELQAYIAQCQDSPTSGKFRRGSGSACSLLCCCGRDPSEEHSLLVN
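Tet-induced TRPML1-DL cells, 1,500 per well, cultured overnight, were loaded with a no-wash Ca2+ dye for 45–90 min. Calcium fluorescence was recorded on the FDSS for 110 s after compound addition, before the EC80 agonist (4 uM 54-4) was added.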
TRPML1 inh – human mucolipin-1 channel inhibition; AID 624415; Q9GZU1; actives 0.02% (n = 390,000); TRPML1-inducible cells, Ca2+ dye fluorescence, FDSS; hits give low values; inhibition of EC80 agonist-evoked calcium signal; activity change, negative = inhibition, % (concentration not given with the values); in the data active means activity change below about -50%; inconclusive means about -30% to -50%; inactive means above about -30%;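 note: stimulus is agonist 54-4 at its EC80 concentration; % is set by controls: 0 for no effect and ±100 for the full control effect; compound concentration not given in the record; the text of the record puts the active cut at -80%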
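Tet-induced TRPML1-DL cells loaded with Ca8 no-wash calcium dye were read kinetically on FDSS. Compound addition was followed by EC80 agonist 54-4 (4 uM final); inhibition was read over 110 s.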
Six1-Eya2 inh – inhibitors of human Six1/Eya2 interaction. AlphaScreen GST-Six1/His-Eya2 binding, biochemical; hits give low values; control for the full effect not named in the record. activity change, % (concentration not given with the values). actives 0.56% (n = 360,000). AID 651725; in the data active = activity change below about -65%; inconclusive = about -30% to -65%; inactive = above about -30%; note: % is set by controls: 0 for no effect and ±100 for the full control effect
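AlphaScreen luminescence read after one hour at 37 °C in darkness. Pin-transferred compounds met GST-Six1 and His-Eya2 protein (5X stock 250 nM/500 nM) plus glutathione donor and Ni-chelate acceptor beads (5X, 50 ug/mL).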
TRPV1 potentiator – enhances activation of the human vanilloid receptor TRPV1. Q8NER1. TRPV1-expressing cells, Fluo-8 calcium influx, capsaicin EC20 potentiation; host cell line not named in the record; control for the full effect not named in the record. potentiation, % at 8.33 µM. actives 0.02% (n = 320,000); active means potentiation above 80%; inconclusive means 30% to 80%; inactive means below 30%; note: 0% is about no effect
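Cells expressing TRPV1 were dye-loaded with Fluo-8 and read kinetically: 10 s baseline, 3 min after compound (agonist portion), then 2 min after EC20 capsaicin (allosteric enhancer portion). Calcium-bound dye fluorescence at 480/520 nm.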
CtBP-E1A blk – blocks the CtBP interaction with E1A. AlphaScreen GST-E1A/His-CtBP binding, 1536-well; hits give low values; control for the full effect not named in the record. activity change, % (concentration not given with the values). actives 0.49% (n = 340,000). AID 651724; in the data active means activity change below about -65%; inconclusive means about -30% to -65%; inactive means above about -30%; note: % is set by controls: 0 for no effect and ±100 for the full control effect
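AlphaScreen with 125 nM GST-E1A and 125 nM His-CtBP (5X stocks) in Tris pH 8.0, 300 mM NaCl, BSA, Tween 20, TCEP. Compounds preincubated 2 h at 37 deg C, then glutathione donor/nickel acceptor beads added for 1 h at 37 deg C in dark.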
D2 potentiator – potentiates the human D2 dopamine receptor allosterically. potentiation, % (concentration not given with the values). DiscoveRx D2 beta-arrestin cells, luminescence, 90 min; 100% = 57 uM dopamine signal. actives 0.23% (n = 360,000). P14416. AID 624464; active = potentiation of 50% or more; inconclusive = 30% to 50%; inactive = 30% or less;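 note: compound concentration not given in the record; tested on top of an EC20 dose of dopamine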
Target sequence (P14416 whole entry, looked up): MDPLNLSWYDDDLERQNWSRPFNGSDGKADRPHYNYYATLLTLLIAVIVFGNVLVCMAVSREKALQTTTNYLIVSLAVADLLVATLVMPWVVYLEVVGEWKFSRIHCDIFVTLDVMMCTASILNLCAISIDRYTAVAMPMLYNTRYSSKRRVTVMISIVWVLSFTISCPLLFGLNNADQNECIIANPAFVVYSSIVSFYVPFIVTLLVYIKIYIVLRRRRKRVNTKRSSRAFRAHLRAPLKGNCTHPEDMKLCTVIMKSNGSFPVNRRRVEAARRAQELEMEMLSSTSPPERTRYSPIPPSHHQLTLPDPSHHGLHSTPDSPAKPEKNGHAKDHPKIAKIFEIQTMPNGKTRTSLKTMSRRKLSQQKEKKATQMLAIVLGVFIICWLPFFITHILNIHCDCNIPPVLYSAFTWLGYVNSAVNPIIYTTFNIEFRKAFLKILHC
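PathHunter beta-arrestin assay in DiscoveRx D2 cells. Compounds were added with an EC20 of dopamine (50 nM final) for 90 min at 37 deg C. Luminescence was read 1 h after detection reagent, with 57 uM dopamine as the EC100 control.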
An asterisk follows results filed as active; ? = inconclusive; nt = no result given; & = joins results of further samples.

SMILES	TRPML1 ag	TRPML1 inh	Six1-Eya2 inh	TRPV1 potentiator	CtBP-E1A blk	D2 potentiator
Cc1ccc(C)c(NC(=O)C(c2ccccc2)N2CCOCC2)c1 (centres undefined)	-0.6	28.4	8.3	-0.7	-2.9	-4.6
C=CCNc1c2c(nc3ncnn13)CC(C)CC2 (centres undefined)	1.2	-8.3	-4.1	1.2	nt	-6.1
Cc1ccc(NC(=O)c2cc(S(=O)(=O)N3CCOCC3)cn2C)c(C)c1	-0.5	38.6	-16.8	7.5	-9.6	-5.5
COCCNc1ncnc2nc[nH]c12	0.5	-12.1	-1.7	4.9	10.4	-10.7
COC(=O)c1cccc(NC(=O)NC(=O)c2ccccc2Cl)c1	10.5	22.4	0.9	1.8	9.5	-1.1
Cc1cc(C)nc(NC(=O)CN2C(=O)c3ccccc3S2(=O)=O)n1	-0.8	9.6	2.2	-4.6	5.1	-3.4
Cc1cccc(NC(=O)CN2CCN(C(=O)C3CCC3)CC2)c1C	0.4	-10.9	-5.9	22.9	-0.5	2.1
FC(F)(F)Oc1ccc(NC(=S)NCc2ccccc2)cc1	-0.2	-1.1	6.3	-4.4	6.6	-2.0
COc1cc(OC)c(C(=O)OCC(=O)N2CCN(S(=O)(=O)c3ccc(C)cc3C)CC2)cc1OC	-0.3	0.1	-7.7	nt	-11.5	-3.4
NC(=O)NCc1ccc(Cl)cc1	-0.2	-5.6	-6.2	0.8	0.0	-2.2
COc1ccc(C(=O)N(CC2CCCO2)C(C(=O)NC2CCCC2)c2ccc(C)cc2)cc1OC (centres undefined)	-0.2	24.0	1.8	21.5	6.4	-24.0
COc1ccc(-n2c(SCC(=O)N3CCc4ccccc43)nnc2-c2c[nH]c3ccccc23)cc1	0.3	2.8	0.3	5.3	9.2	-3.2
CCN1CCN(C(=O)C2CCN(Cc3cc(Cl)ccc3O)CC2)CC1	-0.2	1.2	19.9	-2.5	48.0	-18.0
O=C1CN(C(=O)COC(=O)CNS(=O)(=O)c2ccccc2)c2ccccc2N1	-0.3	-8.6	-8.5	0.0	6.4	-1.9
Cc1ccc(CNC(=O)COC(=O)CSc2cc(C)c(Br)cc2C)cc1	-0.7	8.8	7.0	-9.4	5.6	0.5
O=c1c2ccc(F)cc2sn1-c1ccccc1	-0.5	1.6	-10.4	nt	-1.6	-25.4
CC(=O)N1CC=C2C(C#N)=C(N)C(C#N)(C#N)C(CCc3ccccc3)C2C1 (centres undefined)	1.1	-0.2	-11.7	-4.5	-4.0	-16.1
Cc1ccnc(Nc2nc(-c3sc(C)nc3C)cs2)c1	3.1	18.3	-22.5	nt	-29.8	-0.1
O=C(COc1ccccc1Cl)N1CCN(c2ccccn2)CC1	-0.9	4.7	1.7	?	6.7	-3.2
C/C(=N\NC(=O)C1CC1)c1ccc(C(C)(C)C)cc1	0.8	2.2	10.3	-10.0	25.6	-31.9
COC(=O)c1ccc(NC(=O)c2ccc(NC(=O)C3CCCO3)cc2)cc1 (centres undefined)	-0.8	-13.6	0.6	-17.5	3.0	-4.6
NC(=O)c1nc2c([nH]c1=O)CCCC2	0.5	-3.1	-1.3	nt	1.3	-1.5
CCCCOC(=O)/C(=C/c1cn(C)c2ccccc12)NC(=O)c1ccc(OC)cc1	-0.2	-4.0	-14.5	5.0	1.7	-14.3
COC(=O)c1c(NC(=O)CN2C(=O)C(=O)N(CC(C)C)C2=O)sc2c1CCCCC2	-0.6	8.5	-16.5	18.5	-3.9	14.1
COc1cc(CN2CCNC(=O)C2CC(=O)N(C)CCCN2CCOCC2)cc(OC)c1 (centres undefined)	-0.1	5.8	-14.2	-6.4	-3.1	-7.5

Further results follow.
SMILES	TRPML1 ag	TRPML1 inh	Six1-Eya2 inh	TRPV1 potentiator	CtBP-E1A blk	D2 potentiator
CN(Cc1ccccc1)CC(O)COc1ccc(CNCCCOc2cccnc2)cc1 (centres undefined)	0.0	-8.6	-4.2	4.5	-0.9	-29.6
CCc1c(C)nc(N)n2c(SCC(=O)Nc3ccccc3)nnc12	-0.6	-2.0	1.8	13.3	-4.6	-8.0
CCCCCN(C(=O)CCC(=O)OCC(=O)N1CCCCC1CC)c1c(N)n(CCCC)c(=O)[nH]c1=O (centres undefined)	2.0	0.4	1.7	nt	3.9	5.8
CCC1Nc2ncnc(N3CCOCC3)c2N(Cc2ccc(Br)cc2)C1=O (centres undefined)	-0.5&-0.5	6.3&-18.2	4.4&-5.6	nt	-2.0&-8.3	-59.5&-6.7
CCC(C)NC(=O)CSc1nc2ccccc2c(=O)n1Cc1ccc(OC)cc1 (centres undefined)	1.7	11.5	-0.2	7.3	5.5	-3.2
CSc1nc2ccc(NC(=O)c3ccc(Cl)s3)cc2s1	-1.2	-5.3	5.7	-21.3	0.3	-1.3
O=C(Nc1ccc(S(=O)(=O)N2CCOCC2)cc1)c1c(F)cccc1F	0.0	15.1	10.8	-5.7	-1.2	-7.4
COc1ccccc1-c1n[nH]c2c1[C@H](C)CC[C@H]2C(C)C	2.7	13.5	1.3	-5.9	-3.0	3.8
COc1ccc(/C=C/c2ccncc2)c2ccccc12	-0.4	1.9	-2.7	-2.1	15.0	14.4
COc1cccc(OCC(=O)N(C)Cc2nc(-c3cccc(C)c3)no2)c1	0.5	21.3	4.7	-0.5	-5.3	-1.8
COc1ccc(CC(=O)OCCN(C)C)cc1	0.4	1.7	-0.2	9.3	-1.1	-8.0
Cc1ccn2c(=O)cc(C)nc2c1	1.1	2.2	-6.1	17.8	11.8	0.7
N/C(=N\OC(=O)CSc1ccccc1)c1ccncc1	-0.1	7.4	4.4	14.9	0.9	-8.0
O=C(Nc1ccnn1C1CCN(C/C=C/c2ccccc2)CC1)c1ccccc1	0.7	-13.4	1.1	10.6	0.0	-27.4
CCN(CC)S(=O)(=O)N1CCC(C(=O)NC2CCCc3ccccc32)CC1 (centres undefined)	-0.3	-6.0	1.0	7.7	6.5	-5.4
COc1ccc(NC(=O)Nc2ccccc2C(=O)N2CCCC2)cc1	-0.8	10.3	-2.0	-6.7	1.0	-6.7
Cc1cc(=O)[nH]c(Nc2cccc(Cl)c2C)n1	-0.9	26.8	-1.4	-2.8	4.3	-22.7
CNC(=O)c1ccc(-c2sc3nc(N4CCOCC4)c4c(c3c2N)CC(C)(C)OC4)o1	0.8	-1.3	-0.4	6.7	-2.3	5.4
O=C1c2ccccc2NC(c2cccc([N+](=O)[O-])c2)N1O (centres undefined)	1.8	31.5	-0.9	15.7	nt	-6.9
COc1ccc(C(=O)N/C(=C\c2cn(S(=O)(=O)N(C)C)c3ccccc23)C(=O)N2CCN(C)CC2)cc1	0.5	12.6	-1.1	26.7	0.7	-30.6
O=C1/C(=C\c2ccc(-c3ccccc3Cl)o2)SC(=S)N1CC1CCCO1 (centres undefined)	-0.1	-6.6	-4.5	1.2	-5.4	5.2
Cc1ccc(OCC(=O)N/N=C/c2cn(Cc3ccccc3)c3ccccc23)cc1	1.7	-15.1	-26.2	4.0	nt	-7.9
Cc1cccn2c(=O)c3cc(S(=O)(=O)c4ccccc4)c(=N)n(Cc4ccco4)c3nc12	0.1	0.4	1.5	9.6	-6.3	-19.9
CC(=O)c1ccc(NC(=O)CSc2nnc(-c3ccoc3C)n2Cc2ccccc2)cc1	1.1	14.0	-10.4	-27.1	-10.3	-27.0
CCc1nc2ccc(C(=O)NCCN3CCCC3)cn2c1N(C)Cc1ccc(OC)cc1	-0.6	nt	0.3	nt	-5.3	-7.3

Given in markdown: 5 of the compounds above.
| smiles | TRPML1 ag | TRPML1 inh | Six1-Eya2 inh | TRPV1 potentiator | CtBP-E1A blk | D2 potentiator |
| --- | --- | --- | --- | --- | --- | --- |
| COc1ccccc1-c1n[nH]c2c1[C@H](C)CC[C@H]2C(C)C | 2.7 | 13.5 | 1.3 | -5.9 | -3.0 | 3.8 |
| COc1ccc(/C=C/c2ccncc2)c2ccccc12 | -0.4 | 1.9 | -2.7 | -2.1 | 15.0 | 14.4 |
| COc1cccc(OCC(=O)N(C)Cc2nc(-c3cccc(C)c3)no2)c1 | 0.5 | 21.3 | 4.7 | -0.5 | -5.3 | -1.8 |
| COc1ccc(CC(=O)OCCN(C)C)cc1 | 0.4 | 1.7 | -0.2 | 9.3 | -1.1 | -8.0 |
| Cc1ccn2c(=O)cc(C)nc2c1 | 1.1 | 2.2 | -6.1 | 17.8 | 11.8 | 0.7 |

Single records, as listed above. Order of screens: TRPML1 ag	TRPML1 inh	Six1-Eya2 inh	TRPV1 potentiator	CtBP-E1A blk	D2 potentiator
Profile of `Cc1ccc(C)c(NC(=O)C(c2ccccc2)N2CCOCC2)c1` (centres undefined) = -0.6	28.4	8.3	-0.7	-2.9	-4.6
Profile of `CCC(C)NC(=O)CSc1nc2ccccc2c(=O)n1Cc1ccc(OC)cc1` (centres undefined) = 1.7	11.5	-0.2	7.3	5.5	-3.2
Profile of `CCN1CCN(C(=O)C2CCN(Cc3cc(Cl)ccc3O)CC2)CC1` = -0.2	1.2	19.9	-2.5	48.0	-18.0
Profile of `N/C(=N\OC(=O)CSc1ccccc1)c1ccncc1` = -0.1	7.4	4.4	14.9	0.9	-8.0

(continued)
SMILES	TRPML1 ag	TRPML1 inh	Six1-Eya2 inh	TRPV1 potentiator	CtBP-E1A blk	D2 potentiator
Clc1cc(Br)ccc1OCCN1CCOCC1	0.9	26.3	4.9	5.7	-0.8	-22.2
O=C(Nc1ccccc1)c1cc(C2CCCCN2C(=O)c2ccc3c(c2)CCO3)on1 (centres undefined)	-0.3	nt	-4.7	nt	-8.0	-1.8
O=C(Cn1cccn1)c1ccccc1	0.4	4.2	0.4	?	0.3	3.4
CC(C)(C)NC(=O)CN(Cc1cccnc1)C(=O)c1csnn1	0.2	-4.0	1.9	7.9	2.8	-3.6
COc1cccc2cc(C(=O)NCc3ccc(F)cc3)c(=N)oc12	-0.2	20.8	7.1	-8.3	-0.2	-6.0
CCc1nnc(NC(=O)CSc2nnc(-c3ccoc3C)n2-c2ccc(C)cc2)s1	0.7	8.8	-6.9	-13.2	-2.9	-41.7
O=c1cc(N2CCc3ccccc3C2)[nH]c(=O)n1-c1ccc(Cl)cc1	-0.2	7.7	4.1	-6.1	4.7	-2.9
Cc1c(CC(=O)NCC(=O)NCC(=O)O)c(=O)oc2cc3c(cc12)CCC(C)(C)O3	0.4	-9.0	-0.5	-5.0	-6.2	-6.8
COCCn1c(C)cc(C(=O)COC(=O)CNC(=O)c2ccccc2)c1C	0.0	-14.5	5.3	2.6	0.4	-2.7
CCc1nc2ccc(C(=O)N(C)CC(=O)Nc3ccc(F)c(F)c3F)cc2nc1CC	-0.5	-3.0	10.1	13.9	10.6	-3.7
Cc1cc(CNC(=O)C2CCC(=O)N(Cc3cccc(C(F)(F)F)c3)C2)no1 (centres undefined)	0.2	9.0	3.7	2.1	14.2	-8.6
CC(C)n1nc(C(=O)Oc2cccc(Cl)c2Cl)c2ccccc2c1=O	-0.1	-13.2	2.4	-1.3	1.5	-18.7
Fc1ccc(Sc2ccccc2CNC2=NCCN2)cc1	-1.2	-2.2	0.5	?	1.6	-25.2
